MT1-MMP act inh: MT1-MMP (human) activation inhibition; 360,000 compounds, 0.061% hits; HT1080 RFP-PRO-GFP cells, GFP/RFP ratio fluorescence, overnight; percent of plate control window, DMSO zero; GFP/RFP ratio change, % at 20 µM; P50281; AID 651647;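 active = GFP/RFP ratio change of at least 30% with cell ATP level not reduced by more than half and red fluorescence within 50% of control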; also: strong numbers were not always called active
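Read-out: GFP/RFP fluorescence ratio; Test system: RFP-PRO-GFP reporter HT1080 cells; Compound dosing: single-point 20 µM compound, 1% DMSO; Times: overnight compound exposure at 37 °C.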
Env fusion inh: blocks HIV Env-driven cell-cell fusion. 360,000 compounds, 1.1% hits. AID 651610. inhibition, % at 12.3 µM. HeLa-JRFL Env/CEM21 cell fusion, luciferase;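 active = mean replicate inhibition score of at least 50 and every replicate individually at or above 50; inconclusive = only one of the two criteria met; inactive = mean below 50 and not all replicates reaching 50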;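 also: 0% = plate neutral controls and 100% = maraviroc near 300 nM; one replicate is shown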
PABP polyA inh: blocks human PABP binding to poly(A) RNA | fluorescence polarization | inhibition, % at 35 µM | AID 2014 | 290,000 compounds, 1% hits;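 active = 50% or more with normal probe brightness, or confirmed in later tests; inconclusive = above 50% with abnormal brightness, or retests that disagree; inactive = below 50% or failed in later tests; about a fifth of its hits are not listed in these tables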;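 also: calls also rest on retests at 20 µM and on dose response follow-up; controls were probe without protein and protein plus probe with vehicle; some compounds called inactive have numbers as strong as hits; many hits fall short of the cut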
eIF4H inh: inhibitors of RNA binding by human eIF4H | Q15056 | eIF4H fluorescence polarization binding assay | inhibition, % at 35 µM | 290,000 compounds, 0.94% hits;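 active = 50% or more with normal probe brightness, or confirmed in later tests; inconclusive = above 50% with abnormal brightness, or retests that disagree; inactive = below 50% or failed in later tests; about a fifth of its hits are not listed in these tables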;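 also: calls also rest on retests at 20 µM and on dose response follow-up; 0% = protein and probe with vehicle and 100% = probe without protein; strong numbers were not always called active; many hits fall short of the cut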
CSC inhib: cancer stem cell inhibition. cancer stem cell-like cells viability, luminescence. inhibition, % at 7.5 µM. 300,000 compounds, 1.1% hits;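 active = mean at 75% or more and at least half the replicates too; inconclusive = mean and replicates disagree; tested in HMLE shEcad cells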;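 also: 0% = median of negative and 100% = median of positive control wells; the first replicate is given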
Rce1 inh: yeast Ras-converting enzyme inhibition | Q03530 | yeast membranes, quenched prenylated peptide cleavage fluorescence | calls only | 290,000 compounds, 0.27% hits;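 active = fall in fluorescence gain of 50% or more versus controls, with final raw signal at or below 3038400; inconclusive = same 50% fall but final raw signal above 3038400; inactive = fall in fluorescence gain under 50%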;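 also: plate controls were neutral control wells for no effect and wells lacking membranes for full effect; tested at 10 µM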
Target sequence (Q03530 whole entry, looked up): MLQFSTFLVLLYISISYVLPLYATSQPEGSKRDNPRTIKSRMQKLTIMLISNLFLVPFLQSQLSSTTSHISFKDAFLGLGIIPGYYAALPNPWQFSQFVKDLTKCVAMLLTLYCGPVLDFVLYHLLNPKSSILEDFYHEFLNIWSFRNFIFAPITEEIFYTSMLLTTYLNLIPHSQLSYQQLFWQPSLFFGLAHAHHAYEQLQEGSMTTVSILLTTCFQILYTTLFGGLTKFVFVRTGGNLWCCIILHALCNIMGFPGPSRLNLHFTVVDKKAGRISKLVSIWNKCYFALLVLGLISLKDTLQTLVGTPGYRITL
Yeast UUG start: alters start codon recognition fidelity in yeast | S. cerevisiae UUG-firefly luciferase reporter, luminescence/redox ratio | activity score, % at 18.7 µM | 350,000 compounds, 0.13% hits | AID 602363;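 active = replicate mean at a twofold rise or more, about +100% in these data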;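 also: firefly luciferase made from a UUG start codon reports start codon fidelity; reporter light over untreated wells divided by growth signal over untreated wells; some hits fall short of that in this replicate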
MT1-MMP act inh RFP: second read-out of MT1-MMP act inh, no call of its own (marks repeat the call); RFP signal change, %; measured here: RFP expression control read;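 0 = vehicle wells; hits needed this value within 50% of zero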
An asterisk follows results filed as active; i = inactive; ? = inconclusive; / = no result given.

Values in the order: PABP polyA inh, CSC inhib, MT1-MMP act inh RFP, Env fusion inh, Yeast UUG start, Rce1 inh, MT1-MMP act inh, eIF4H inh
- COc1ccc(CCNC(=O)c2ccc(CS(=O)(=O)c3ccc(C)cc3)o2)cc1OC
    7.8, -9.2, -5.1, ?, -5.3, i, 4.1, 9.2
- Cc1ccc(S(=O)(=O)/N=C2\C=C(NS(=O)(=O)c3ccccc3)C(=O)c3ccccc32)c(C)c1
    /, /, 25.1*, 49.3, -6.8, /, 39.3*, /
- O=C(NC1CCCCC1NC(=O)c1ccco1)c1ccco1 (stereo unspecified)
    -1.4, -10.6, 5.6, /, -5.4, i, 4.9, -6.8
- COC(=O)[C@@H](NC(=O)Nc1cccc(OC)c1)C(C)C
    5.1, -3.2, 1.4, -38.5, -18.8, i, -1.9, -4.6
- O=C(Cn1ccc(C(F)(F)F)n1)Nc1ccc(S(=O)(=O)NCc2ccco2)cc1
    /, 3.7, 0.3, 25.1, -17.2, i, 2.0, /
- CCC(Oc1ccccc1C)C(=O)N1CCCN(C)CC1 (stereo unspecified)
    -14.9, 3.6, -0.9, 6.7, 4.2, i, -5.0, 0.1
- CCc1nnc(NC(=O)CN2CCOCC2)s1
    1.4, 14.1, 5.0, /, /, i, 4.4, 4.1
- COc1ccccc1NC(=O)c1ccc(NC(=O)COC(=O)C2CCCCC2)cc1
    -5.4, -6.9, 4.8, 13.2, -11.6, /, 1.8, 5.0
- O=C(N/C(=C\c1ccccc1)C(=O)N1CCOCC1)c1cccc(Br)c1
    -17.0, 4.9, -0.6, -45.4, -1.8, i, 2.2, 1.0
- O=C(Nc1cccnc1)c1ccccc1NS(=O)(=O)c1ccc(F)cc1
    15.6, 17.9, -2.2, 13.9, -12.2, /, -1.7, 3.3

Limited to Env fusion inh and Rce1 inh (2 entries from above):
Compound	Env fusion inh	Rce1 inh
CCC(Oc1ccccc1C)C(=O)N1CCCN(C)CC1 (stereo unspecified)	6.7	i
CCc1nnc(NC(=O)CN2CCOCC2)s1	/	i

Additional structures follow.
Values in the order: PABP polyA inh, CSC inhib, MT1-MMP act inh RFP, Env fusion inh, Yeast UUG start, Rce1 inh, MT1-MMP act inh, eIF4H inh
- Cc1ccc(C)c(CSc2nc3[nH]ncc3c(=O)[nH]2)c1
    -7.7, 61.4, -15.9, -6.8, /, i, -16.2, 0.4
- C(=N\N=C\c1ccccn1)/c1ccccn1
    1.7, -3.7, 4.5, -0.5, -17.7, i, 2.9, 2.4
- Cc1cc(N2CCN(C)CC2)nc2ccc(NC(=S)NC3CC3)cc12
    -5.5, 12.9, -0.8, 6.0, /, i, -3.9, -1.3
- COc1ccc(N2C(=O)c3ccccc3C(C)(C)C2=O)cc1
    -3.7, -7.4, -0.3, 12.4, -20.8, i, 1.8, -4.1
- Cc1ccc(CN2CCCN(C)CC2)c(C)c1
    2.1, 16.7, 3.4, 11.3, -3.4, /, 4.1, 8.6
- COc1cc(CN2CCN(CCCc3ccccc3)CC2CCO)cc(OC)c1 (stereo unspecified)
    -6.7, 15.8, 0.3, 7.2, 13.3, i, -5.0, -2.2
- Cc1ccc(OCC(=O)N(C)CC(=O)NCc2ccco2)c(Br)c1
    /, /, 4.4, -149.0, -12.1, /, -4.1, /
- COc1cc2c(cc1OC)CN(c1ccc(-c3ccccc3OC)nn1)CC2
    0.4, 4.4, 0.3, /, 4.2, i, -19.0, 4.8
- COc1ccc(CNCC(=O)Nc2ccccc2-n2cccc2)cc1
    4.7, 65.2, -7.1, -29.4, /, i, -2.9, -4.4
- CCOP(=O)(OCC)/C(=N/OC(=O)c1ccc(Cl)cc1Cl)C(N)=O
    2.1, -16.8, 2.6, -16.8, /, i, 1.9, -9.0
- CCOc1ccc(-c2nc(N)ncc2-c2ccccc2OC)c(O)c1
    3.1, -1.4, -10.1, 20.1, -14.0, i, 2.2, 2.5
- Cc1nc2c(C)[n+](CC(=O)c3ccccc3)ccc2n1C
    3.9, -0.2, -4.4, -3.1, -17.4, i, -3.4, 2.1
- O=C(N/N=C/c1ccc[nH]1)c1ccccc1OCc1ccccc1Cl
    -5.4, 1.3, -5.0, 30.0, /, i, -3.3, 44.0
- Cc1cccc(N(Cc2ccccc2)C(=O)CSC(C)C(=O)Nc2cc(C)on2)c1 (stereo unspecified)
    /, -7.3, 2.4, 0.4, -5.8, i, 0.9, /
- CC1CCN(C(=O)COc2ccc(Nc3ccccc3)cc2)CC1
    -0.8, -4.8, -3.2, 14.9, /, i, -0.6, -4.0
- CCOC(=O)c1cccc(NC(=O)CCOc2ccccc2)c1
    -6.7, 14.1, -3.6, 2.0, /, i, -1.8, -1.1
- COCCCNC(=O)C1CCN(S(=O)(=O)c2ccc3nc4c(c(C(=O)O)c3c2)CCCCC4)CC1
    18.0, 0.2, 3.2, 3.6, -23.2, i, 1.3, -7.0
- COc1ccccc1NS(=O)(=O)c1c(C)nc2sccn2c1=O
    -4.2, -7.9, -4.1, -10.0, -8.6, i, -0.2, -0.5
- COc1ccccc1CNC(=O)COc1ccccc1OC
    0.0, -1.0, 3.3, /, 0.5, i, 1.1, -3.0
- Oc1ccc(N=Nc2cccc(Cl)c2)cc1C=Nc1ccc(N2CCOCC2)cc1
    -1.0, /, 14.3, /, /, i, 18.2, 8.3
- O=C(C1=C(O)C(=O)N(c2ncccn2)C1c1ccc(Cl)c(Cl)c1)c1ccco1 (stereo unspecified)
    22.3, 0.8, 1.4, /, -23.8, i, -37.0, 31.5
- CCCn1c2c(c(=N)c3c1CCC3)CCCC2
    -4.5, -8.5, -19.0, /, /, i, -4.7, -12.4
- CN(Cc1ccccc1)C(=O)c1ccc(NC(=O)Cc2ccc(NC(=O)C3CCCN(C(=O)C4CCCC4)C3)cc2)cc1 (stereo unspecified)
    /, /, -19.5, 2.8, -24.6, /, -5.2, /
- Cc1ccc(CN2CC(C(=O)Nc3cc(S(C)(=O)=O)ccc3Cl)CC2=O)cc1 (stereo unspecified)
    -6.4, /, 5.4, -17.6, 2.3, i, 8.5, 7.0
- CC12CCC(C(=O)N3CCN(c4ccccc4)CC3)(CC1=O)C2(C)C (stereo unspecified)
    -1.9, -3.9, /, /, /, i, /, -3.3
- Cc1oc2c(CN3CCCC3)c(O)ccc2c(=O)c1-c1ccccc1
    -4.6, /, 0.7, /, -8.8, ?, -2.7, 1.8
- Cc1oc2c(c1C(=O)c1ccc(Cl)cc1)C(=O)C(=O)c1ccccc1-2
    18.9, /, -26.6, /, /, i, -17.0, -0.9
- CC(CC(=O)NCCc1ccc(Cl)cc1)S(=O)(=O)c1ccc2c(c1)NC(=O)CO2 (stereo unspecified)
    3.3, -5.2, 0.4, 0.4, -14.7, i, 0.8, -4.9
- COc1ccc(NS(=O)(=O)c2cn(C)cn2)cc1
    10.1, -12.2, -4.5, -3.3, /, i, -1.4, -1.9
- CCn1cnc2c1c(=O)n(CC(=O)NCC(C)C)c(=O)n2Cc1ccccc1
    -3.0, -4.6, 2.4, 1.5, -11.7, i, 0.2, -2.4
- CC(C)(C)c1cc(C(=O)NCC(=O)OCC(=O)c2cccc([N+](=O)[O-])c2)cc(C(C)(C)C)c1
    -4.0, -27.6, 5.0, -4.0, 4.9, i, -0.9, -8.8
- COc1cccc(N2CCN(c3ccc4nnc(CCC(=O)Nc5ccc(C)cn5)n4n3)CC2)c1
    5.8, -9.4, 2.3, /, -4.3, i, 1.1, -0.2
- O=[N+]([O-])c1ccc(Oc2ccc(S(=O)(=O)N3CCOCC3)cn2)cc1
    /, -0.7, -1.1, 2.8, -4.0, i, 4.9, /
- N#Cc1ccncc1Sc1ccc(Cl)cc1
    -3.2, -2.9, 0.0, -5.4, -6.4, i, -2.9, -1.4
- Cc1nnc(SCc2ccc(Cl)c(Cl)c2)s1
    -5.7, -4.9, -1.9, 3.5, /, i, -1.7, -1.9
- CCOC(=O)N1CCN(C(=O)c2ccc3c(=O)n(CCOC)c(=O)[nH]c3c2)CC1
    -0.2, -10.3, -1.0, -16.3, -2.8, i, 0.8, -5.2
- CC(C)(C)c1nnc(N/N=C/c2ccc(O)cc2)n(N)c1=O
    4.9, -3.0, 0.8, /, -27.5, i, -3.0, 7.6
- COc1cccc(CN2CC(C(=O)NCCn3cccn3)CCC2=O)c1 (stereo unspecified)
    4.3, -17.2, 0.5, -1.6, -18.9, i, -6.9, 0.8
- COc1ccccc1NC(=O)Cn1c(=O)n(-c2ccccc2)c(=O)c2oc3ccccc3c21
    -5.4, 3.2, -2.6, /, /, i, 4.2, 4.3
- CC(=O)Nc1ccc(Oc2nc(-c3ccccn3)nc3ccccc23)cc1
    -3.5, 11.0, -4.1, -12.0, /, i, -6.1, 9.7
- O=C(COC(=O)c1ccc(C(F)(F)F)cc1)Nc1cccc(S(=O)(=O)NC2=NCCCCC2)c1
    /, -16.9, 0.9, -6.4, 12.3, /, 0.3, /
- CC1Cc2ccccc2N1S(=O)(=O)c1cccc(C(=O)OCC(=O)NC2CCS(=O)(=O)C2)c1 (stereo unspecified)
    -3.7, -11.7, 4.5, /, 7.6, i, 3.5, -5.2
- c1cnc2c(SCc3ccc(-c4nnco4)cc3)cccc2c1
    -1.5, 14.4, -1.7, /, -2.1, i, 3.9, 4.0
- CC(C)c1ccc(C(O)c2nc3ccccc3n2C)cc1 (stereo unspecified)
    -5.0, 2.1, -3.9, -4.7, -18.3, i, -0.9, -3.9
- COc1cc(NC(=O)CN(c2ccc(C)cc2)S(=O)(=O)c2c(C)n[nH]c2C)cc(OC)c1
    -5.7, /, 2.1, -70.2, -8.8, i, 4.7, -0.2
- Cn1c(=O)c2c(nc(N3CCCCC3)n2CC(O)COc2ccccc2)n(C)c1=O (stereo unspecified)
    4.1, -7.8, -1.1, -29.3, -3.7, i, -1.7, -17.1
- O=C(Nc1ccccc1)C1CC(=O)N(Cc2ccccc2)C1 (stereo unspecified)
    5.5, 0.9, 0.6, 8.2, -12.8, i, 0.1, -3.8
- CC(=O)OCCCNc1cc(Sc2nc3ccccc3s2)c2nonc2c1[N+](=O)[O-]
    -1.9, 75.9*, 3.5, /, 8.3, i, 12.0, 15.8
- COc1ccc(/C=C/C(=O)NC(=S)Nc2ccccc2C(=O)NC2CCCCC2)cc1
    -0.5, 21.5, -2.9, /, /, i, -5.5, -2.2
- CCOC(=O)Cc1csc(NC(=O)c2cnc3sc(C)cn3c2=O)n1
    0.9, -13.0, -1.9, -21.6, -34.2, i, 4.0, 2.3

Next entries follow.
Values in the order: PABP polyA inh, CSC inhib, MT1-MMP act inh RFP, Env fusion inh, Yeast UUG start, Rce1 inh, MT1-MMP act inh, eIF4H inh
- Nc1ccccc1N=c1ssnc1Cl
    8.5, /, 1.9, -11.6, /, /, -2.5, 4.1
- O=C(c1scc2c1CCCC2)N1CCOCC1
    6.1, -7.3, 0.5, -7.0, -9.2, i, 0.6, -1.6
- CC(=O)OC1COC(N2CCc3cc([N+](=O)[O-])ccc32)C(OC(C)=O)C1OC(C)=O (stereo unspecified)
    -1.8, -0.5, 2.0, /, /, i, 3.1, 1.7
- Cc1cc(C)c(NC(=O)c2ccccc2C(=O)c2ccccc2)c(C)c1
    -19.9, -4.8, -1.5, -7.7, /, i, -3.0, -3.4
- CCOC(=O)Cn1nc(C)c(-c2ccccc2)c1N
    0.2, -13.2, 3.3, -13.4, -15.7, i, 3.0, -3.2
- COc1cc(/C=N/NC(=O)c2cc(-c3c(C)nn(-c4ccccc4)c3C)n[nH]2)ccc1O
    4.3, 9.2, 20.0, -345.0, -20.0, i, 25.2, -3.5
- O=C1Nc2cc(C(=O)NCCCN3CCOCC3)ccc2S/C1=C/c1ccccc1F
    -6.9, 27.2, -2.1, -10.1, -13.6, i, -1.4, -9.3
- CC1CN(c2ccc(NS(=O)(=O)c3ccccc3)cc2C(=O)O)CC(C)O1 (stereo unspecified)
    5.7, -0.4, 9.3, -5.8, -7.7, i, 2.2, 0.8
